# Compound activity: PubChem, National Center for Advancing Translational Sciences (NCATS)
# StopGo FLuc = Primary qHTS Assay for Foot and Mouth Disease Virus Antivirals against NCGC Sytravon and CBC Compound Libraries: Firefly Luciferase Signal. HEK cells with a luciferase reporter of 2A StopGo recoding. Potency, µM (series often up to 57.5 µM), for inactives: at the top dose signal change, negative = less light. 0.23% of 120,000 active; active = well fitted falling curve with a large enough effect; inconclusive = small, poorly fitted or top-dose-only effect; inactive = no such curve, though single readings can be large or run the other way; also: nearly all actives have a fitted effect of over 60% in size; overnight with compound
# 2A Renilla = Primary qHTS Assay for Foot and Mouth Disease Virus Antivirals against NCGC Sytravon and CBC Compound Libraries: Renilla Luciferase Signal | HEK cells with a luciferase reporter of 2A StopGo recoding | Potency, µM (highest dose often 57.5 µM), inactives show at the highest dose signal change, negative = less light | 0.32% of 120,000 active; active means well fitted falling curve with a large enough effect; inconclusive means small, poorly fitted or top-dose-only effect; inactive means no such curve, though single readings can be large or run the other way; also: nearly all actives have a fitted effect of over 55% in size; overnight with compound
# * = called active by the depositor; ? = inconclusive; & = joins results of further samples; [ ] = another dose, or the depositor's remark. % is scaled to controls: 0 for no effect and ±100 for the full control effect; potency is read from the fitted curve at half-maximal effect.
1: Cc1ccc(OC(C)C(=O)Nc2ccc3oc(C)nc3c2)cc1 (stereo not given)
2: c1ccc(CC(CCNCc2ccco2)c2ccco2)cc1 (stereo not given)
3: O=C(COc1ccccc1Cl)OCc1cc(=O)n2nc(-c3cccs3)sc2n1
4: COc1cc(NC(=O)Cn2nc(-c3ccccc3)c3c(c2=O)CCCC3)cc(OC)c1
5: Cn1nc(C(=O)N2CCCC2c2ccc3c(c2)OCCCO3)c2ccccc2c1=O (stereo not given)
6: Cc1cccc(C2CCCN2S(=O)(=O)c2ccc(C(C)(C)C)cc2)c1 (stereo not given)
7: COc1ccc(OC)c(NS(=O)(=O)c2cc(C(=O)N3CCCCC3)cs2)c1
8: NC(=O)CN1CCCC(C(=O)O)C1 (stereo not given)

entry no. | 1 | 2 | 3 | 4 | 5 | 6 | 7 | 8
StopGo FLuc | 21% | 0% | 1% | 13% | 9% | 6% | 0% | 3%
2A Renilla | 16% | 9% | -18% | 6% | -7% | 22% | 2% | 4%

9: Cc1cc(C(F)(F)F)nc(SCC(=O)O)n1
10: COc1ccccc1CC(C(=O)Nc1ccccc1C)c1nn[nH]n1 (stereo not given)
11: Cc1ccc(-c2nnc(SCC(=O)NC(C)(C)C)nc2-c2ccc(C)cc2)cc1
12: COc1ccc(CN(C(=O)Cc2coc3ccc(C)cc23)C2CCS(=O)(=O)C2)cc1 (stereo not given)
13: N#CC(C(=O)CCC1CCCC1)C(=O)NCc1ccccc1 (stereo not given)
14: C=CCN(Cc1ccc(C#N)cc1)S(=O)(=O)c1cccs1
15: Cc1ccc(S(=O)(=O)c2nc(S(=O)(=O)c3ccc(C)cc3)c(NCCCOC(C)C)s2)cc1
16: CCOc1ccc(OCC)c(Nc2nc3ccc(C(=O)c4ccccc4)cc3n3cnnc23)c1

entry no. | 9 | 10 | 11 | 12 | 13 | 14 | 15 | 16
StopGo FLuc | 7% | -9% | 10% | -7%&-26% | 11% | 2% | -7% | -23%
2A Renilla | 6% | -6% | 30%[activator] | -5%&-13% | 16% | 27% | 54%[activator] | -14%

17: Cc1ccc(-n2c(=O)c3ccc(C(=O)NCc4ccco4)cc3n(Cc3ccccc3Cl)c2=O)cc1
18: CCOC(=O)c1sc(NC(=O)COc2c(C)cc(C)cc2C)nc1C
19: Cc1ccc(CNc2nc3nc(C)c(CCC(=O)Nc4cccc5ccccc45)c(=O)n3[nH]2)cc1
20: N#Cc1ccccc1Sc1ccccc1C(=O)Nc1ccc2c(c1)CCC2
21: Cc1ccc(S(=O)(=O)c2nc(-c3ccco3)oc2SC(C)C)cc1
22: CS(=O)(=O)c1ccccc1NC(=O)CNc1cc(Cl)ccc1N1CCCC1
23: CCCn1nc(C(=O)N2CCC(C(=O)OCC)CC2)c2ccccc2c1=O
24: COc1cc(Cl)c(NC(=O)CCOc2cc(C)ccc2C)cc1OC

entry no. | 17 | 18 | 19 | 20 | 21 | 22 | 23 | 24
StopGo FLuc | -13% | -7% | -8% | 30% | 10%&-15% | -14% | -2% | -2%
2A Renilla | 9% | -13% | -16% | 42%[activator] | 124%&105%[activator] | -6% | -2% | -12%

# Along the list, from the results shown.
# Compounds 17 to 24 in 2A Renilla read 9%, -13%, -16%, 42%[activator], 124%&105%[activator], -6%, -2%, -12%
# Compounds 17 to 24 in StopGo FLuc read -13%, -7%, -8%, 30%, 10%&-15%, -14%, -2%, -2%

# Next structures
25: O=C(NCc1ccccc1)c1ccc2c(c1)CCN2S(=O)(=O)c1ccccc1
26: CCN(CC(=O)NCc1ccc(Cl)cc1)C(=O)Cn1nc(C(=O)O)c2ccccc2c1=O
27: CCOC(=O)c1cccc(NC(=O)C2=C(C)C(=O)OC23CCCCC3)c1
28: Cc1cc(C)c2oc(-c3cccc(NC(=O)c4cc5ccccc5o4)c3)nc2c1
29: CCc1ccc(CNC(=O)c2ccc3c(c2)nc2n3CCCCC2)cc1
30: Cc1ccc(NC(=O)c2cc3c(=O)[nH]c4ccccc4c3n2C)cc1F
31: CCc1ccc(C(=O)N(CC#N)C2CC2)cc1
32: CCc1cc(C(=O)O)c2c(c1)C(C)CC(C)(C)N2 (stereo not given)

entry no. | 25 | 26 | 27 | 28 | 29 | 30 | 31 | 32
StopGo FLuc | -3% | -12% | 3% | -4% | 62%&72%[activator] | 6% | 0% | 45%[activator]
2A Renilla | 223%[activator] | -10% | 23% | -8% | 47%&12%[activator] | -4% | 16% | 17%

# Some of the entries so far, tab-delimited.
cpd	compound	StopGo FLuc	2A Renilla
28	Cc1cc(C)c2oc(-c3cccc(NC(=O)c4cc5ccccc5o4)c3)nc2c1	-4%	-8%
25	O=C(NCc1ccccc1)c1ccc2c(c1)CCN2S(=O)(=O)c1ccccc1	-3%	223%[activator]
27	CCOC(=O)c1cccc(NC(=O)C2=C(C)C(=O)OC23CCCCC3)c1	3%	23%
29	CCc1ccc(CNC(=O)c2ccc3c(c2)nc2n3CCCCC2)cc1	62%&72%[activator]	47%&12%[activator]
26	CCN(CC(=O)NCc1ccc(Cl)cc1)C(=O)Cn1nc(C(=O)O)c2ccccc2c1=O	-12%	-10%
31	CCc1ccc(C(=O)N(CC#N)C2CC2)cc1	0%	16%

# (cont.)
33: CCN(c1cc(C)cc(C)c1)S(=O)(=O)c1nnc(NC(=O)c2ccccc2C)s1
34: CCOc1ccc(S(=O)(=O)Nc2ccc3oc(C)c(C(=O)OC(C)C)c3c2)cc1
35: O=S(=O)(Cc1ccccc1)c1ccc2ccccc2c1
36: CC1=C(c2ccc(C(C)C)cc2)S(=O)(=O)NC1=NC(C)C12CC3CC(CC(C3)C1)C2 (stereo not given)
37: COc1ccc(CNC(=O)c2ccc(-c3nc(CSc4ccc(C)cc4)c(C)o3)cc2)cc1OC
38: COCCOC(=O)c1c(C)n(C)c2ccc(O)cc12
39: CC(C)(C)C(=O)NCCCC(=O)NCc1cccnc1
40: Cc1ccc2[nH]cc(CCNC(=O)c3ccc(F)cc3F)c2c1

entry no. | 33 | 34 | 35 | 36 | 37 | 38 | 39 | 40
StopGo FLuc | ? | 155%[activator] | 56%[activator] | -16% | -13% | 11% | 16% | 20%
2A Renilla | 4% | 307%[activator] | 15% | -12% | -8% | -2% | -1% | 7%

41: CCC(C(=O)Nc1cc(C)ccc1OC)n1nnc(C(=O)OC)c1C(=O)OC (stereo not given)
42: CCN1C(=O)COc2ccc(NC(=O)c3cc(=O)c4cc(C)ccc4o3)cc21
43: CCOc1ccc(NC(=O)C(NS(=O)(=O)c2cccc3nsnc23)c2ccccc2)cc1 (stereo not given)
44: CC(C)NC[C@@H](O)COc1ccc(CC(N)=O)cc1
45: COc1cccc(-n2ccn3c(SCC(=O)N4CCN(c5ccc(F)cc5)CC4)nnc3c2=O)c1
46: COc1cccc(-c2ocnc2C(=O)NCc2ccccc2C)c1
47: COc1ccc(Nc2c3c(nc4nncn24)CCC3)cc1OC
48: CC(C)n1nnnc1Sc1nc(-c2cccnc2)nc2ccccc12

entry no. | 41 | 42 | 43 | 44 | 45 | 46 | 47 | 48
StopGo FLuc | -13% | -1% | -20% | -16% | -7% | 67%[activator] | 43%[activator] | 1%
2A Renilla | -11% | 2% | 22% | -7% | -22% | 23% | 45%[activator] | -26%

49: CN(C)c1ccc(CNc2nc(-c3ccco3)nn2S(C)(=O)=O)cc1
50: CCc1ccc(OCc2nc(-c3ccc(OC)cc3)no2)c(Br)c1
51: Cc1cc(-n2c(C)nc3ccccc3c2=O)ccc1NC(=O)c1cccc([N+](=O)[O-])c1C
52: O=C(CCCOC(=O)c1c(Cl)ccc(Cl)c1Cl)c1ccc(Br)cc1
53: COCCn1cnc2c1c(=O)n(Cc1ccc(C(=O)OC)cc1)c(=O)n2Cc1ccccc1
54: Cc1ccc2c(c1)C(Cc1nc3ccccc3c(=O)n1C)C(=O)N2Cc1ccccc1 (stereo not given)
55: O=C(NCCc1ccncc1)c1ccc(Cl)cc1Cl
56: COC(=O)c1ncoc1-c1ccccc1C(=O)N1CCN(c2cccc(OC)c2)CC1

entry no. | 49 | 50 | 51 | 52 | 53 | 54 | 55 | 56
StopGo FLuc | 86%[activator] | 10% | -3% | 5% | 15% | -7% | 140%[activator] | 6%
2A Renilla | -5% | -10% | -5% | -1% | 4% | 12% | 0% | 5%

# A few values from the results shown.
# Reading of compound 49 in StopGo FLuc: 86%[activator]
# Reading of compound 52 in 2A Renilla: -1%

# Further compounds follow:
57: CC1CCC(N(C)C(=O)CCc2c[nH]c3ccccc23)CC1 (stereo not given)
58: CCc1cc2c(N)c(C(=O)c3ccccc3)sc2nc1C
59: CCOc1c(OC)cccc1C1C=C(C(=O)O)Nc2ncnn21 (stereo not given)
60: CC(C)N(Cc1ccccc1)C(=O)CCn1cnc2c1c(=O)n(C)c(=O)n2C
61: CCOC(=O)COc1ccc2c(=O)c(Oc3ccc(OC)cc3)c(C)oc2c1
62: CN(CCOc1ccc(F)cc1)C(=O)c1cn(C)c2ccccc12
63: COc1ccc(NC(=O)c2cc(C)nc3ccccc23)cc1OC
64: O=C(Nc1cccc(NC(=O)c2ccccc2Cl)c1)c1cccc(Br)c1

entry no. | 57 | 58 | 59 | 60 | 61 | 62 | 63 | 64
StopGo FLuc | 203%[activator] | 253%[activator] | -11% | -2% | -1% | -5% | 91%[activator] | 5%
2A Renilla | 16% | 78%[activator] | -3% | -1% | -3% | 21% | 43%[activator] | -15%

65: Cc1cccc(C)c1OCC(=O)NC(Cc1c[nH]c2ccccc12)C(=O)O (stereo not given)
66: COc1cc(S(=O)(=O)Nc2ccc(C(C)=O)cc2)ccc1NC(C)=O
67: CCOCCn1c(SCc2c(F)cccc2Cl)nc2c1c(=O)[nH]c(=O)n2C
68: Cc1ccc(C)c(Cn2c(C(C)NC(=O)c3ccc(F)cc3)nc3ccccc32)c1 (stereo not given)
69: O=C(c1csc(Nc2cccc3ccccc23)n1)N1CCc2ccccc2C1
70: Cc1nn(-c2cc(N3CCN(C(=O)c4ccc(F)cc4)CC3)ccc2[N+](=O)[O-])c(=O)c2ccccc12
71: CCOCCn1c(N(C)Cc2ccccc2)nc2c1c(=O)[nH]c(=O)n2C
72: O=C(O)CSc1ccc(Br)cc1

entry no. | 65 | 66 | 67 | 68 | 69 | 70 | 71 | 72
StopGo FLuc | -7% | 8% | 5% | -10% | -27% | -1% | -12% | 21%
2A Renilla | 1% | 130%[activator] | -1% | -8% | -28% | -4% | -15% | 4%

73: COC(=O)CN1C(=O)C(O)(c2c(C)[nH]c3ccccc23)c2ccccc21 (stereo not given)
74: COc1ccc(Nc2cc(C(=O)NCC(OC)OC)c3ccccc3n2)cc1
75: Cc1nn(-c2ccc3nncn3n2)c2c1C(c1ccccc1)CC(=O)N2 (stereo not given)
76: COc1ccc2oc(=O)cc(CN(C)Cc3ccc(C)cc3)c2c1
77: CN1C(C(=O)Nc2ccc(F)cc2F)=CC(c2ccc3c(c2)OCO3)=NS1(=O)=O
78: Cc1ccn2cc(-c3c(-c4ccccc4Cl)n(C)c(=O)n(C)c3=O)nc2c1
79: COc1cc(NC(=O)C2CCN(S(=O)(=O)c3ccc4c(c3)CCCC(=O)N4)CC2)cc(OC)c1
80: Cn1cc(C(=O)NCc2ccccc2)c(=O)c2cc(S(=O)(=O)N3CCOCC3)ccc21

entry no. | 73 | 74 | 75 | 76 | 77 | 78 | 79 | 80
StopGo FLuc | 31% | 0% | -4% | ? | 27% | 0% | 6% | -9%
2A Renilla | 23% | 1% | -13% | 35µM* | 9% | -2% | 4% | -9%

81: Cc1ccc(N2C(=O)CSC23C(=O)Nc2ccccc23)cc1F (stereo not given)
82: CC(C)C12CN3CC(C(C)C)(CN(C1)C3c1ccc(Cl)cc1)C2=O (stereo not given)
83: COc1ccc(OCc2ccc(-c3nc(C#N)c(NC(C)c4ccccc4)o3)o2)cc1 (stereo not given)
84: O=C(NCC(c1ccco1)N1CCOCC1)c1cc(=O)c2cc(Br)ccc2o1 (stereo not given)
85: COc1ccc(NC(=O)c2oc3ccccc3c2NC(=O)c2cc(=O)c3ccccc3o2)cc1
86: O=C(Nc1ccc2c(c1)CCC2)C(Cc1ccccc1)n1cnnn1 (stereo not given)
87: Brc1cccc(CNCc2ccc(Cn3cncn3)cc2)c1
88: Cc1ccc(NC(=O)CCc2ncc(-c3ccc(F)cc3F)o2)c(Cl)c1

entry no. | 81 | 82 | 83 | 84 | 85 | 86 | 87 | 88
StopGo FLuc | 5% | 1% | -16% | -5% | -21% | 28% | -6% | 7%
2A Renilla | 2% | 5% | -14% | 9% | -6% | 5% | -14% | 2%

# This is a subset. The share of hits here may be higher or lower than overall.
